Screening data from PubChem BioAssay.
Ab BasE inh = blocks the Acinetobacter baumannii siderophore enzyme BasE; purified BasE, fluorescence polarization binding displacement; inhibition, % (no concentration beside the values); actives 0.1% (n = 84,000);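 active = both replicates above 25% with normal brightness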;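 note: 0% = negative plate control signal and 100% = positive plate control signal; stock transfer was 100 nL into about 30 µL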
KSHV LANA nucl = inhibitors of KSHV LANA binding to nucleosomes. actives 0.3% (n = 51,000). z-score (test concentration not listed). FITC-LANA1-23 / chicken nucleosome fluorescence polarization; active compounds read low. AID 720717;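 active = both repeat wells score below -2 in polarization z-score versus plate sample wells, excluding overly bright wells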;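 note: 100 nL library stock added to about 30 µL; numbers are from one replicate; some results filed as inactive read as strong as hits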
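Test system: purified chicken nucleosomes with FITC-labelled LANA N-terminal peptide (1-23); Input: 240 nM purified chicken nucleosomes (480 nM peptide binding sites), final; Medium: TEN-BT buffer, pH 7.5; Timing: 10–45 min, room temperature; Technique: fluorescence polarization, 480 nm excitation, 535 nm parallel and perpendicular emission; Replication: duplicates.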
* marks the source's active call; other numbers are inactive results; nt = not tested or not shown.

SMILES	Ab BasE inh	KSHV LANA nucl
CC(OC(=O)COc1ccc(-c2ccccc2)cc1)C(N)=O (stereo not given)	-0.1	nt
Cn1c(Sc2nc3ccccc3n2C)nc2ccccc21	-2.7	-0.194
O=C(Nc1ccc2nn(-c3ccccc3)nc2c1)c1ccccc1	-2.0	0.115
O=C1C(Nc2cccc(O)c2)=C(n2nnc3ccccc32)C(=O)c2ccccc21	2.0	-0.827
COC(=O)c1ccc(COc2ccc3c(C)cc(=O)oc3c2)o1	-1.0	-0.204
COC(=O)c1c(NC(=O)C2CC(=O)NN2C)sc2c1CCC2 (stereo not given)	-2.4	0.922
O=C(O)CCOc1ccc2c(c1)OCCO2	0.7	0.834
CCN(CC)CCSc1nnc(Nc2ccccc2)n1-c1ccccc1	-1.6	-0.0205
O=C(NCc1ccccc1)c1nnc(CS(=O)(=O)c2ccccc2)o1	4.5	-0.374
Cc1cc(NCCCN2CCCC2=O)n2c(nc3ccccc32)c1C#N	-8.1	4.17
COc1ccc(-c2nc3scc(CCNC(=O)c4ccccc4)n3n2)cc1	-2.3	0.173
Cc1ccc(/C=C2\CN(Cc3ccccc3)C/C(=C\c3ccc(C)o3)C2=O)o1	-11.8	nt
CN(Cc1cc2ccccc2[nH]c1=O)C(=O)C1CCCCC1	0.1	0.123
CC(C)c1cc(NNC(N)=O)cc(C(C)C)c1O	4.3	-0.105
COC(=O)C1CCCN(C(=O)C2CCCN2S(=O)(=O)c2cccc3nsnc23)C1 (stereo not given)	2.9	nt
CC(C)CN(CC(C)C)C(=O)Nc1ccc(F)cc1F	1.5	-1.32
N#Cc1nn(-c2ccccc2)c(=O)n(Cc2ccc(Cl)cc2Cl)c1=O	-1.8	nt
Cc1ccccc1-c1oncc1-c1nnnn1-c1ccccc1	-0.6	nt
CCN(C(=O)CSc1nc(C)cc(C)c1C(N)=O)C1CCS(=O)(=O)C1 (stereo not given)	-0.8	nt
C/C(=N/NC(=O)C(F)(F)F)c1cccs1	-1.6	0.367

5 compounds from above, arranged by the number in KSHV LANA nucl, highest first:
Molecule | KSHV LANA nucl
C/C(=N/NC(=O)C(F)(F)F)c1cccs1 | 0.367
COc1ccc(-c2nc3scc(CCNC(=O)c4ccccc4)n3n2)cc1 | 0.173
CN(Cc1cc2ccccc2[nH]c1=O)C(=O)C1CCCCC1 | 0.123
CC(C)c1cc(NNC(N)=O)cc(C(C)C)c1O | -0.105
CC(C)CN(CC(C)C)C(=O)Nc1ccc(F)cc1F | -1.32

Later entries.
SMILES	Ab BasE inh	KSHV LANA nucl
O=S1(=O)CCC(N=Cc2ccccc2O)C1 (stereo not given)	1.2	nt
O=C(Cn1cnc2c(nnn2Cc2ccc(Cl)cc2)c1=O)NC1CCCC1	3.2	-0.782
O=C1C2CCCN2C(=S)N1c1ccccc1 (stereo not given)	2.2	nt
CN(Cc1ccccc1)C(=O)Cn1ncc2c1-c1ccccc1OC2	-0.9	-1.29
O=C(OCC(=O)N1CCC(c2ccccc2)=N1)C1CC2CCCC(C1)C2=O (stereo not given)	0.6	nt
COc1ccccc1NC(=O)C(C)Sc1nnc(N)s1 (stereo not given)	-0.7	nt
Cc1ccc2occ(/C=N/N3CC(=O)NC3=O)c(=O)c2c1	0.5	nt
Cn1cc(-c2nc3ccccc3s2)c(N)n1	-4.5	3.48
CCCN(Cc1nnc(-c2ccco2)o1)C(=O)CSc1nc2ccccc2n1C	-1.1	nt
Cc1c(-c2nc3ccccc3s2)oc2ccccc12	-0.1	nt
N#Cc1ccc(OCC(=O)c2ccccc2)cc1	2.3	-0.077
O=C1CN(C(=O)COC(=O)C2CCN(S(=O)(=O)c3ccccc3)CC2)c2ccccc2N1	-2.9	nt
CCn1c(SC)nnc1C1CCCN(C(=O)c2ccccc2-c2ccccc2)C1 (stereo not given)	1.6	-0.937
O=C(CCc1ccc(S(=O)(=O)N2CCOCC2)cc1)N1CCN(Cc2ccccc2)CC1	-1.1	nt
Cc1[nH]c2ccccc2c1C(=O)CSc1nc2cc(S(=O)(=O)N3CCCCC3)ccc2o1	-1.6	nt
CCC1CCCCN1C(=O)COc1cccc2c1OC(C)(C)C2 (stereo not given)	0.8	nt
O=C(Nc1ccccc1F)Nc1ccccc1N1CCCCC1	-1.1	0.219
NCCC(O)(P(=O)(O)O)P(=O)(O)O	nt	-0.098
O=C(COc1cccc2ccccc12)Oc1ccc(-c2nnco2)cc1	-3.9	nt
Cn1nc(C(=O)N2CCN(C3CCS(=O)(=O)C3)CC2)c2ccccc2c1=O (stereo not given)	0.9	nt
Cc1csc(=NC(=O)c2ccccc2)n1Cc1ccco1	-2.0	nt
Cc1c(C(=O)N2CC(C)OC(C)C2)oc2ccccc12 (stereo not given)	-0.4	0.24
O=c1cc(Nc2cccc(O)c2)c2ccccc2o1	-1.8	-0.485
Cc1cccc(N=C2NC(=O)/C(=C/c3ccc(F)cc3)S2)c1C	2.5	nt
N=C1C(c2ccccc2)=C(O)CN1NC(=O)CSc1nc2ccccc2[nH]1	-2.2	nt
CC(=O)Oc1cc2c(cc1Br)C1CCC3(C)C(OC(C)=O)CCC3C1CC2 (stereo not given)	2.8	nt
CC(NC(=O)C1C2C=CC(C2)C1C(=O)O)C12CC3CC(CC(C3)C1)C2 (stereo not given)	-0.5	0.246
CC1(C(=O)Nc2ccccc2N2CCOCC2)Cc2ccccc2C(=O)O1 (stereo not given)	0.7	nt
CC1=C(/C=C/C(C)=C\C=C\C(C)=C\C(=O)O)C(C)(C)CCC1	-0.6	-0.706
C(=C\c1ccccc1)/CSc1nnnn1-c1ccccc1	2.3	nt
CCc1ccc(N2CN(CCc3ccccc3)CNC2=S)cc1	1.5	-0.712
COc1cccc(N2CCN(CC(=O)c3ccc4ccn(C(C)=O)c4c3)CC2)c1	1.1	0.139
Cc1cc(C2(c3cc(C)c(N)c(C)c3)CCCCC2)cc(C)c1N	1.1	nt
O=S(=O)(Nc1ccccc1NS(=O)(=O)c1ccc(F)cc1)c1ccc(F)cc1	-0.3	nt
CCOc1ccc(C=C2C(=O)N(CC)C(=S)N(CC)C2=O)c(O)c1	-7.2	nt
O=C1/C(=C/c2cccc(F)c2)COc2ccccc21	1.1	nt
CCOc1ccc2nc(SCC(N)=O)[nH]c2c1	-0.1	nt
CCCCNc1ncc2c(n1)c(=O)c(C#N)c1[nH]c3ccccc3c(=O)n12	-8.3	nt
Cn1c(=O)c2c(ncn2CC(=O)NCc2ccco2)n(C)c1=O	1.1	nt
Nc1c(O)cccc1C(=O)CC(N)C(=O)O (stereo not given)	-0.8	0.207
Cc1nnc(SCC(=O)NCC2CCCO2)n1C1CCCCC1 (stereo not given)	0.8	nt
COC(=O)c1ccc(NC(=O)C(C)Sc2n[nH]c(C)n2)cc1 (stereo not given)	0.5	-0.402
CCc1ccc(/C=c2\sc3nc(C4COc5ccccc5O4)nn3c2=O)cc1 (stereo not given)	2.0	nt
COc1ccccc1C1=NOC(Cn2c(NCc3ccccc3)nc3c2c(=O)n(C)c(=O)n3C)C1 (stereo not given)	2.6	0.674
CCOC(=O)c1ccc2nc(C(F)(F)F)cc(N3CCN(c4ccccc4)CC3)c2c1	2.9	nt
Cc1cc(C)cc(OCC(=O)N2Cc3ccccc3CC2C(=O)O)c1 (stereo not given)	2.8	nt
Cc1ccc(S(=O)(=O)C(F)F)cc1	0.6	nt
COc1cccc(C2CC(=O)NC(SC)=C2C#N)c1 (stereo not given)	-0.3	-0.164
Cc1[nH]c2ccccc2c1C1(O)C(=O)N(C(C)C)c2ccccc21 (stereo not given)	1.4	0.22
N=C(N)SCCS(=O)(=O)c1ccccc1	-2.1	nt
More entries follow.
SMILES	Ab BasE inh	KSHV LANA nucl
N#C/C(=C\Nc1ccccc1F)c1nc(-c2cc3ccccc3oc2=O)cs1	2.5	nt
Cc1nn(C2CCS(=O)(=O)C2)c2nc(C3CC3)cc(C(=O)NC3CCCCCC3)c12 (stereo not given)	0.1	nt
COc1ccc2c(c1OC)C(=O)OC2C/C(=N\NC(N)=O)c1ccccc1 (stereo not given)	0.7	nt
COc1ccc(C(N)CCO)cc1OC (stereo not given)	nt	-1.34
Cc1ccc(OCc2nc(CC(=O)O)cs2)cc1	0.2	nt
CSc1ccccc1C(=O)NC1CCCCC1	2.8	-1.46
COc1c(Cl)cc(C(=O)N(Cc2ccc(N(C)C)cc2)Cc2ccco2)cc1Cl	-1.0	0.756
O=C(CN1CCN(Cc2ccc(F)cc2Cl)CC1)NCc1ccccc1	-0.5	-0.567
O=C(CCSCCc1ccncc1)N1CCOCC1	1.6	0.016
CC(=O)Oc1ccc(-c2ccccc2)cc1	2.5	nt

Pulled by structure from above:
SMILES	Ab BasE inh	KSHV LANA nucl
COc1cccc(C2CC(=O)NC(SC)=C2C#N)c1 (stereo not given)	-0.3	-0.164
CCOc1ccc(C=C2C(=O)N(CC)C(=S)N(CC)C2=O)c(O)c1	-7.2	nt
O=C(Nc1ccccc1F)Nc1ccccc1N1CCCCC1	-1.1	0.219
COc1ccc(C(N)CCO)cc1OC (stereo not given)	nt	-1.34
CC(NC(=O)C1C2C=CC(C2)C1C(=O)O)C12CC3CC(CC(C3)C1)C2 (stereo not given)	-0.5	0.246
Cc1csc(=NC(=O)c2ccccc2)n1Cc1ccco1	-2.0	nt
N=C1C(c2ccccc2)=C(O)CN1NC(=O)CSc1nc2ccccc2[nH]1	-2.2	nt

Continued.
SMILES	Ab BasE inh	KSHV LANA nucl
Cc1cc(N2CCOCC2)nc(SCc2cc3c(cc2Cl)OCO3)n1	2.8	-0.303
O=C(O)CCN1C(=O)SC(Nc2cccc3ccccc23)C1=O (stereo not given)	1.5	-1.02
COc1ccc(C(=O)CCC(=O)O)c(OC)c1	-1.2	1.55
Nc1c2c(nn1-c1ccccc1)CCC2	0.3	nt
NS(=O)(=O)c1ccc(NC(=O)CN2CC(=O)NC(=O)C2)cc1	-1.4	0.187
C/C=C/c1ccc(OCC(=O)OC(C)C(N)=O)c(OC)c1 (stereo not given)	2.9	nt
c1cc(-c2nc3cc4sc(-c5ccn[nH]5)nc4cc3s2)[nH]n1	2.1	-0.491
CC(C)(CNC(=O)C1c2ccccc2-c2ccccc21)N1CCOCC1	3.0	nt
CC(C)Oc1ccc(C2CC(=O)Nc3sc(C(=O)c4ccco4)c(N)c32)cc1 (stereo not given)	-2.3	0.214
O=C(Nc1c[nH]c2cc(Cl)ccc2c1=O)N1CCCCC1	-0.3	-0.539

The closing two records of the section above come first, to join the parts:
SMILES	Ab BasE inh	KSHV LANA nucl
CC(C)Oc1ccc(C2CC(=O)Nc3sc(C(=O)c4ccco4)c(N)c32)cc1 (stereo not given)	-2.3	0.214
O=C(Nc1c[nH]c2cc(Cl)ccc2c1=O)N1CCCCC1	-0.3	-0.539
COc1ccc(C2=NN(C(=O)CSc3n[nH]c(-c4ccc(Br)cc4)n3)C(c3ccco3)C2)cc1 (stereo not given)	-4.0	nt
C=C1O[C@@](CO)(n2cnc3c(N)ncnc32)[C@H](O)[C@@H]1O	-3.0	0.835
CCc1nnc(NC(=O)C2CCCO2)s1 (stereo not given)	-0.9	0.233
C=CCNS(=O)(=O)c1ccc(SC)cc1	1.0	-0.451
CCCC(=O)N(C)c1nnc(-c2ccc(F)cc2)s1	1.8	-0.438
O=C(Nc1ccc(-c2nc3ccccc3s2)cc1)c1cccc(F)c1	-1.6	nt
CCN1CCN(C(=O)CCc2nc3ccccc3n2-c2ccccc2)CC1	-1.8	nt
c1ccc(OCCSc2nc3ccccc3n2CCOc2ccccc2)cc1	1.1	nt
O=c1c(Cc2ccccc2OCc2ccccc2)coc2ccccc12	1.2	nt
C=CCSc1nc2ccccc2n1C(=O)c1ccc2c(c1)OCO2	-0.3	0.572
Cn1c(=NC(=O)c2cccc(C(F)(F)F)c2)sc2c3ccccc3ccc21	1.5	nt
Cn1nc(C(=O)OCC(=O)C(C)(C)C)c2ccccc2c1=O	2.7	nt
Cc1c(N2C(=O)CSC2c2ccc(F)cc2)c(=O)n(-c2ccccc2)n1C (stereo not given)	1.1	nt
COC(=O)c1sccc1NC(=O)c1c(C)nn(-c2ccccc2)c1-n1cccc1	0.3	-0.903
COc1cccc(C(=O)NCc2ccccc2F)c1	0.2	nt
CN(CCO)CC(O)c1ccccc1 (stereo not given)	0.3	nt
N/C(CC(=O)NCc1ccccc1)=N\O	1.1	nt
O=C(Nc1c(C(=O)N2CCN(c3ncccn3)CC2)oc2ccccc12)c1cc(-c2ccc(F)cc2)on1	-0.9	0.068
O=C1C2CC3CC1CC(C(=O)O)(C3)C2	1.3	nt
Cn1c(=O)c2c(ncn2CC(=O)NN)n(C)c1=O	-0.2	-0.054
CC(Oc1ccc(-c2ccccc2)cc1)C(=O)N1CCN(S(C)(=O)=O)CC1 (stereo not given)	-0.2	0.219
CN(Cc1ccccc1)C(=O)CN1CCN(C(c2ccccc2)c2ccccc2)CC1	2.0	nt
Cn1cnnc1SC1c2cccc3cccc(c23)C1NS(=O)(=O)c1ccccc1 (stereo not given)	-4.8	0.489
O=C(c1ccccc1)N1CCN(C2=NS(=O)(=O)c3ccccc32)CC1	1.5	nt
CC1CCCC(C)N1C(=O)CSc1nc2cc(Cl)ccc2o1 (stereo not given)	0.6	nt
Cc1cc(C(=O)COC(=O)c2cnccn2)c(C)n1-c1ccc(OC(F)F)cc1	1.7	nt
COc1ccc(Cl)cc1-c1nc(SCC(=O)NCC(F)(F)F)n[nH]1	-0.2	nt
Cc1ccc(C)c2[nH]c(=O)c(CN(CCN3CCCC3)C(=O)Nc3cccc(Cl)c3)cc12	-2.8	-0.342
CCNC(=O)c1ccc(C23CC4CC(CC(C4)C2)C3)o1	-1.8	1.13
Cc1ccc(-c2nnn(CC(=O)N(CC(=O)NCC3CCCO3)C3CCN(Cc4ccccc4)CC3)n2)o1 (stereo not given)	-0.3	-0.335
COCc1cc(C)nc(Nc2ccccc2OC)c1C#N	-2.2	0.96
Cc1cc2oc(=O)cc(CN3CCCc4ccccc43)c2cc1C	1.5	nt

This is a subset; count on the stated rates, not on these rows.
